Tgondii IFNg = T. gondii growth inhibition with IFN-gamma, primary screen, cell-based | Toxoplasma gondii growth in IFN-gamma-treated host cells; stronger effect = lower value; reference of the scale not given here | activity change, negative = inhibition, %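 (about 20 µM by stock and volumes)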 | 69,000 compounds, 3.8% hits;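 active = below -70%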;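 also: host cells are HeLa cells infected with Toxoplasma gondii; parasite growth read as luciferase light; one replicate is shown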
* marks the source's active call; other numbers are inactive results; & = joins results of further samples.

SMILES	Tgondii IFNg
COc1cccc(-c2cc(C(=O)NCC3(C)CC(C)=NO3)[nH]n2)c1 (stereo not drawn)	6
COCCNC(=O)c1cc(C2CCN(C(=O)c3ccccc3)C2)nc2ccccc12 (stereo not drawn)	0
O=C(Cc1ccncc1)N1C[C@@H]2N[C@H](C1)C2c1ccc(/C=C/c2ccccc2)cc1 (stereo partly drawn)	1&-42
CN(C(=O)c1ccc(-n2cccc2)cc1)C1Cc2ccccc2C1	15
Cc1ncc(CO)c(CN(C)CC2COc3ccccc3O2)c1O (stereo not drawn)	-5
CC1(C)Cc2c(cnn2-c2ccc(F)cc2)C(NC(=O)C2CCC2)C1 (stereo not drawn)	-12
COc1ccc2c3c([nH]c2c1)[C@H](CO)N(CC1CC1)CC31CN(C(=O)c2ccc(F)cc2)C1	-7
Cc1oc(-c2ccc(Cl)cc2)nc1Cn1nnc(C(=O)Nc2ccccc2Cl)c1C	88
COc1ccc(C(=O)N2CCN(Cc3cnc(C)n3C)CC2)cc1	-5
Fc1ccc(CN2C[C@H](N3CCOCC3)C3OCCCC32)cc1 (stereo partly drawn)	1
CC1=CCC=CC1C(=O)Nc1ccc2c(c1)CCC(=O)N2 (stereo not drawn)	-50
CN1C(=O)C(O)(CC(=O)c2ccccc2O)c2cc(Br)ccc21 (stereo not drawn)	46
Cc1ccc(-c2ccc(S(N)(=O)=O)s2)c(-n2cccn2)c1	6
CC(C)OC(=O)c1cc(NC(=O)[C@@H]2CCCO2)ccc1Cl	-3
O=S(=O)(Cc1ccccc1)N1[C@H](CO)[C@@H](c2ccccc2)C12CN(CCC(F)(F)F)C2	-33
Cc1cccnc1CN1CCN(Cc2[nH]c3ccc(Cl)cc3c2C)CC1	-52
Cc1ccc(-c2nnc(C3CCCN3C(=O)Cn3cc(C(C)C)nn3)o2)s1 (stereo not drawn)	15
O=C(Cn1c(=O)cc(C(=O)N2CCOCC2)c2ccccc21)Nc1ccc(Br)cc1F	0
CN(Cc1ncc[nH]1)Cc1ccc(-c2ccccc2Cl)o1	-30
CC(=O)O[C@H]1C[C@@H](OC(C)=O)C(C)(C)C2C[C@@H](OC(C)=O)[C@@]3(C)C4=CC(=O)O[C@@H](c5ccoc5)[C@]4(C)CCC3[C@]21C (stereo partly drawn)	-61
COCC(=O)N1CC[C@@]2(C[C@H](OCc3cccc(C)n3)CO2)C1	-6
Cc1[nH][nH]c(=O)c1CC(=O)N1CCCC2(CCNC2)C1 (stereo not drawn)	-2
CCCc1cc(CNC(=O)Cc2coc3cc(C)c(C)cc23)on1	60
Cc1c(Cn2ccnc2-c2ccc3c(c2)CC(C)(C)O3)cnn1C	27
N#CC1(c2ccc(NC(=O)c3cccnc3NCc3ccncc3)cc2)CCCC1	-72*
C[C@@H]1CN([C@H](C)CO)C(=O)c2cc(N(C)C)ccc2O[C@@H]1CN(C)Cc1ccc(Oc2ccccc2)cc1	-45
CCNC(=O)CCC(N)C(=O)O (stereo not drawn)	14
OCc1cc(-c2ccc(Cn3ccnc3)cn2)ccc1F	-46
Cc1oc2c(c1C(=O)Nc1cccc(OCCN3CCOCC3)c1)CCCC2	40
OC1(c2cccc(C(F)(F)F)c2)CCN(Cc2ccco2)CC1	-13
NC(=O)C1CCCN1C(=O)C(Cc1cnc[nH]1)NC(=O)C1CCC(=O)N1 (stereo not drawn)	5
CC(C)CC(=O)N1C[C@@H]2CN(c3cnccn3)CC[C@H]2C1	-11
Cn1ncc(CN2CCN(Cc3cccc(F)c3)CC2)c1C1CC1	-1
O=C1CCc2cc(S(=O)(=O)NCc3ccco3)cc3c2N1CCC3	2
COc1ccc2cc(CN3CCOC(C)(C(N)=O)C3)ccc2c1 (stereo not drawn)	69
Cc1cccc(OC(C)c2nnc(NC(=O)C3=NN(C)C(=O)CC3)s2)c1C (stereo not drawn)	-20
Cc1ccc(C2c3[nH]c4ccccc4c3CCN2C(=O)c2ccnn2C)cc1 (stereo not drawn)	175
CN(C)C(=O)CNC(=O)c1ccc2onc(-c3coc(C4CC4)n3)c2c1	68
Cc1cc(C)n(CCn2cc(CCc3ccccc3)nn2)c(=O)n1	3
O=C(c1ccccc1Cl)N1CCc2c([nH]c3ccccc23)C1c1ccc(F)cc1 (stereo not drawn)	-67
CCCNC(=O)c1ccc2ccc(N3CCN(C(=O)N(C)C)CC3)n2c1	-1
COc1ccc2c(c1)c1c(n2Cc2ccccc2)CCCC1	19
C=CCOC1CC2COCC(C1)N2Cc1cccc(C)c1 (stereo not drawn)	-7
O=C1NCCN2CCN(Cc3c(-c4ccccc4)nc4ncccn34)CC12 (stereo not drawn)	-5
O=C1CN(CC(=O)N2CCOC(C(=O)NC3CCCC3)C2)CCN1 (stereo not drawn)	-5
COCc1c(C(=O)NC2CCC(n3cnnc3)CC2)noc1C (stereo not drawn)	-18
Cc1csc(NC(=O)C2CNCc3ccnn3C2)n1 (stereo not drawn)	1
O=C1c2ccccc2S(=O)(=O)N1Cc1nnnn1-c1cccc(C(F)(F)F)c1	17
Cc1nc(-c2ccc(F)cc2)sc1-c1ccc(SCc2cccc(F)c2)nn1	15
NC(=O)c1csc(N2CCCC(c3[nH]ncc3-c3ccc(F)cc3)C2)n1 (stereo not drawn)	8

Among those listed so far, these contain two or more sulfur atoms:
SMILES	Tgondii IFNg
Cc1ccc(-c2ccc(S(N)(=O)=O)s2)c(-n2cccn2)c1	6
Cc1nc(-c2ccc(F)cc2)sc1-c1ccc(SCc2cccc(F)c2)nn1	15

The listing continues.
SMILES	Tgondii IFNg
COc1ccc2c3c([nH]c2c1)[C@H](CO)N(C)CC31CCN(C(=O)c2ccccc2F)CC1	0
O=C(NC(=S)Nc1ccc2c(c1)OCCO2)c1ccccc1F	370
Cc1cccc(S(=O)(=O)N2CCC3(CC2)OC(C(=O)N(C)C)Cn2ccnc23)c1 (stereo not drawn)	-23
CC1=CS(=O)(=O)CC1SC(=S)N(C)C1CCS(=O)(=O)C1 (stereo not drawn)	7
O=C(c1ccc(F)cc1)N1CCc2c([nH]c3ccccc23)C1c1cccnc1 (stereo not drawn)	-47
CN1CCN(C(=O)C[C@H]2CC[C@H]3[C@@H](COC[C@@H](O)CN3C(=O)Nc3ccc4c(c3)OCO4)O2)CC1	43
COc1ccc(C(=O)N2CCc3[nH]cnc3C23CCCCC3)cc1	-6
CCn1c(CC2CCN(C(=O)OCC(C)(C)C)CC2)nn(C)c1=O	9
COc1ccc(C2CCCN2C(=O)c2[nH]c3ccc(OC)cc3c2C)cc1 (stereo not drawn)	13
COCCn1c(SCc2ccccn2)nc2c([nH]c3ccccc32)c1=O	460
COc1cc(C(=O)N2CCc3c([nH]c4ccccc34)C2c2ccc(SC)cc2)cc(OC)c1OC (stereo not drawn)	-60
O=C(NC1C=CS(=O)(=O)C1)C(=O)N1CCc2ccccc2C1 (stereo not drawn)	-5
COc1cccc(-c2nc(C)c(-c3ccc(SCCN4CCOCC4)nn3)s2)c1	0
COC(=O)c1cc2n(n1)CCCN(C(=O)c1cnnn1-c1ccccc1)C2	-5
CO[C@H]1CN(C)C(=O)c2cc(NC(=O)c3cnccn3)ccc2OC[C@@H](C)NC[C@H]1C	110
COC(=O)c1ccccc1OCCOCCOc1cccc2ccc(C)nc12	-2
O=C(Nc1cccnc1)C1CCC2(CCN(S(=O)(=O)c3ccc(F)cc3)CC2)O1 (stereo not drawn)	3
CC(C)c1cc(C2CCN(C(=O)C[C@@H](C)c3ccccc3)CC2)[nH]n1	-7
CCCc1c(C(=O)OCC)cnn1-c1ncc(C(=O)OC)c(C(F)(F)F)n1	-19
O=C(/C=C/c1cc(F)cc(F)c1)NCC1CCC2(CCN(Cc3cccnc3)CC2)O1 (stereo not drawn)	-20
CC(=O)N1CCC(c2nccnc2Oc2ccccc2)CC1	-7
COc1cccc(S(=O)(=O)N2CCC(c3nc(C(=O)N(C)C)c(C)o3)CC2)c1	9
Cc1ccc(-c2nc(C)c(CCNC(=O)C(=O)Nc3ccccc3F)s2)cc1	-18
O=C(c1cnccn1)N1CCC2(CCN(CC3CC3)C2)CC1	6
COCCN(CCOC)C(=O)CN1CCN(C)CC1	-2
Cc1nc([C@@H]2C[C@@H]3CN(Cc4cccs4)C[C@@H]3O2)n[nH]1	141
N#C[C@H]1N[C@@H](CO)[C@H]1c1ccc(C2=CCCC2)cc1	1
N#C[C@@H]1[C@@H](c2ccccc2)[C@H](CO)N1C(=O)c1ccccc1F	5
Cc1ccc(NC(=O)c2cc(-c3cnc(N4CCCC4)nc3)cn2CC2CC2)cn1	-22
CCOCc1nnn2c1CN(Cc1cnn(C)c1)CC2	6

The final 3 records of the part before come first, to join the parts:
SMILES	Tgondii IFNg
N#C[C@@H]1[C@@H](c2ccccc2)[C@H](CO)N1C(=O)c1ccccc1F	5
Cc1ccc(NC(=O)c2cc(-c3cnc(N4CCCC4)nc3)cn2CC2CC2)cn1	-22
CCOCc1nnn2c1CN(Cc1cnn(C)c1)CC2	6
Cc1ccc(C(C)NC(=O)c2cccc(NCc3sccc3C)c2)nc1 (stereo not drawn)	-12
Cc1[nH]c2c(C(=O)N3CCC4(CC3)C(=O)NCCN4C)cccc2c1C	-49
O=C(Cn1c(C2CC2)nc2ccccc21)N1CCCC1c1ccccn1 (stereo not drawn)	1
CCOC(=O)N1CCC(N2CCN(c3cc(N(C)CC)ncn3)CC2)CC1	-3
CCC(=O)Nc1ccc(S(=O)(=O)N2CCC3(CC2)Nc2cc(OC)ccc2-n2cccc23)cc1	-9
Cc1cccc(-c2[nH]n3c(=O)cc(C(C)n4cnc5ccccc5c4=O)nc3c2C)c1 (stereo not drawn)	-29
Cc1ccccc1N1CCN(C(=O)Cc2c[nH]c(=O)[nH]c2=O)C(C)C1 (stereo not drawn)	-5
CCCOc1ccc(-c2noc(-c3c(O)c4ccccc4[nH]c3=O)n2)cc1OC	54
C[C@H](CO)N1C[C@H](C)[C@H](CN(C)C(=O)Nc2ccc(F)cc2)Oc2ccc(NC(=O)c3ccncc3)cc2CC1=O	-19
O=C(C1CCCN(C2CCN(Cc3ccc4c(c3)OCO4)CC2)C1)N1CCCC1 (stereo not drawn)	-49
Cn1nc(C(F)(F)F)cc1OC(=O)c1ccccc1Cl	54
CN(C)CCO[C@H]1CN(Cc2ccoc2)[C@H]2COC[C@@H]12	78
COC1COC2(CCN(C(=O)c3nn(C)c4ccccc34)C2)C1 (stereo not drawn)	14
CCCn1cnnc1CNC(=O)c1cc(NC(C)=O)ccc1Cl	2
Cc1cc(C)nc(NC(=O)NCCCCCCNC(=O)Nc2cc(C)cc(C)n2)c1	-40
CC(=O)N1CCC2(CCCN2c2nncs2)CC1	184
OC[C@@H]1Nc2ccc(-c3cccc(F)c3)cc2[C@H]2[C@@H]1CCN2Cc1ccc(F)cc1	-70
Cc1ccc(CNc2nc(-c3nnc(-c4ccccc4)o3)nc3ccccc23)cc1	73
CCc1ccc(Nc2nc(C(=O)NCCCN3CCc4ccccc4C3)nc3ccccc23)cc1	-51
c1c(CN2CCOC3(CCCC3)C2)nn2c1CNCCC2	5

Single entries from the list:
COCC(=O)N1CC[C@@]2(C[C@H](OCc3cccc(C)n3)CO2)C1 – Tgondii IFNg: -6
O=C1CN(CC(=O)N2CCOC(C(=O)NC3CCCC3)C2)CCN1 (stereo not drawn) – Tgondii IFNg: -5
CC1=CCC=CC1C(=O)Nc1ccc2c(c1)CCC(=O)N2 (stereo not drawn) – Tgondii IFNg: -50
C[C@@H]1CN([C@H](C)CO)C(=O)c2cc(N(C)C)ccc2O[C@@H]1CN(C)Cc1ccc(Oc2ccccc2)cc1 – Tgondii IFNg: -45
COCc1c(C(=O)NC2CCC(n3cnnc3)CC2)noc1C (stereo not drawn) – Tgondii IFNg: -18

Next section:
SMILES	Tgondii IFNg
CN(C)C(=O)N1CCN(c2ccc3ccc(C(=O)CCN4CCOCC4)cn23)CC1	5
COc1ccc([C@@H]2CC=CC[C@H](C)Oc3ccccc3C(=O)N(C)[C@@H](Cc3ccccc3)C(=O)N2)c(OC)c1 (mixture of isomers)	-44
Cc1ccc(CNC(=O)N2CCC3(CC2)NC(=O)c2ccc(F)cc2N3C)cc1	-17
Cc1nc(CC(=O)N2CCC3(CC2)NC(=O)c2ccccc2N3)c(-c2ccccc2)s1	56
CC(C)c1csc(-c2ccc(S(=O)(=O)NCCN3CCCCC3C)s2)n1 (stereo not drawn)	-36
O=C(NCc1nc(Cc2ccccc2)no1)c1cnn2c(-c3ccccc3)ccnc12	-7
Cn1c(=O)c(-c2nc(-c3ccc(Cl)c(F)c3)no2)c(O)c2ccccc21	-22
O=S(=O)(c1ccccc1)N1[C@@H]2CNc3ccccc3[C@@H]2[C@@H]1CO	8
CCCc1nc(NCc2ccccc2-n2ccnc2)c2cnn(C)c2n1	4
O=c1ccc2cc(S(=O)(=O)Nc3ccc(F)c(Cl)c3)ccc2[nH]1	101

Overlap with the part before: four compounds; new compounds follow.
SMILES	Tgondii IFNg
Cn1c(=O)c(-c2nc(-c3ccc(Cl)c(F)c3)no2)c(O)c2ccccc21	-22
O=S(=O)(c1ccccc1)N1[C@@H]2CNc3ccccc3[C@@H]2[C@@H]1CO	8
CCCc1nc(NCc2ccccc2-n2ccnc2)c2cnn(C)c2n1	4
O=c1ccc2cc(S(=O)(=O)Nc3ccc(F)c(Cl)c3)ccc2[nH]1	101
CCN(CC)c1nc(C(=O)N2CCN(C3CCN(C)CC3)CC2)nc2nc(C)cc(C)c12	36
O=C(NCc1noc(-c2ccc(F)cc2)n1)c1coc(-c2ccccc2)n1	-41
CCOc1nc(Nc2ccc(C(C)C)cc2)nc(NC2CCCCC2)n1	-87*
COc1ccc(/C=C/c2nn3c(-c4ccc(OC)c(OC)c4)nnc3s2)cc1	-101*
O=C1NCC2(CCCN(C(=O)CCCOCc3ccccc3)C2)O1 (stereo not drawn)	-51
CCCCOc1ccc(C(=O)NCCc2csc(-c3ccc(Cl)cc3)n2)cc1	-49
Cc1cccc(-c2nnc(-c3nc(NCCc4cnc[nH]4)c4ccccc4n3)o2)c1	121
CCn1c(SCC(=O)Nc2ccc(N(C)C)cc2)nc2cccnc21	-6
COc1ccc(Cl)cc1CNCc1ccc2c(c1)OCO2	4

An excerpt; count on the stated rates, not on these rows.
